StopGo FLuc: FMDV 2A StopGo reporter, firefly signal. HEK cells with a luciferase reporter of 2A StopGo recoding. Potency, µM (series often up to 57.5 µM), inactives show at the top dose signal change, negative = less light. hit rate 0.23% among 120,000. AID 1745856; active = well fitted falling curve with a large enough effect; inconclusive = small, poorly fitted or top-dose-only effect; inactive = no such curve, though single readings can be large or run the other way; also: nearly all actives have a fitted effect of over 60% in size; overnight with compound
2A Renilla: FMDV 2A StopGo reporter, Renilla signal. HEK cells with a luciferase reporter of 2A StopGo recoding. Potency, µM (doses to about 57.5 µM), without a hit: at the highest dose signal change, negative = less light. hit rate 0.32% among 120,000; active means well fitted falling curve with a large enough effect; inconclusive means small, poorly fitted or top-dose-only effect; inactive means no such curve, though single readings can be large or run the other way; also: nearly all actives have a fitted effect of over 55% in size; overnight with compound
* = called active by the depositor; ? = inconclusive; [ ] = another dose, or the depositor's remark. % is scaled to controls: 0 for no effect and ±100 for the full control effect; potency is read from the fitted curve at half-maximal effect.

Molecule | StopGo FLuc | 2A Renilla
O=C(CN1CCN(C(=O)c2cccnc2SC(F)F)CC1)Nc1ccccc1Cl | -6% | 6%
COc1ccc(C(=O)NCc2nnc(SCC(=O)Nc3ccccc3)n2-c2ccc(F)cc2)cc1 | 2% | 22%
CSc1ccc(/C=C/c2nc(=O)c3ccccc3o2)cc1 | 160%[activator] | 0%
CCOC(=O)c1c(C)oc2nc(C)nc(N3CCN(c4cccc(C(F)(F)F)c4)CC3)c12 | -11% | -13%
CCOC(=O)C1CCCCN1S(=O)(=O)c1csc(C(N)=O)c1 (stereo not given) | 19% | -10%
COC(=O)c1ccccc1NC(=O)CN1C(=O)CN=C(c2ccccc2Cl)c2cc(Cl)ccc21 | -29% | -10%
CC(C)NC(=O)CCc1ncc(-c2c(F)cccc2F)o1 | 6% | 4%
O=C(NC(c1ccc(Cl)cc1)c1cccnc1)C1CCCCC1 (stereo not given) | 3% | 8%
O=C(COC(=O)COc1ccccc1Cl)Nc1ccccc1OC(F)F | 14% | 5%
COC(=O)c1ccccc1NC(=O)Cn1nnc(-c2ccc(OC)cc2)n1 | 21% | 27%
N#Cc1nc(-c2ccc(F)cc2)oc1N1CCCC1 | 0% | 39%
Cc1oc(CO)cc1C(=O)OC(C)C(=O)Nc1cc(F)ccc1F (stereo not given) | -7% | -2%
Cc1ccc(-n2nc(C)c3c(C)cc(=O)n(CC(=O)N4CCCc5ccccc54)c32)cc1 | -19% | -21%
CCOc1ccc(C(=O)Nc2nnc(S(=O)(=O)Nc3ccccc3)s2)cc1 | 40%[activator] | 112%[activator]
Cc1cccc(Oc2nc(-c3ccncc3)nc3ccccc23)c1 | 3% | 0%
Cc1ccc(C)c(Nc2nc3ccccc3nc2NS(=O)(=O)c2ccc(F)cc2)c1 | -2% | -3%
OCCN1CCN(c2ncnc3c2c(-c2ccccc2)cn3-c2ccc(F)cc2)CC1 | -13% | -7%
Cc1cc(C)n2nc(C(=O)Nc3cc(F)ccc3C)nc2n1 | 2% | -5%
CCC(=O)N(CCC(c1ccccc1)c1ccc2c(c1)OCO2)Cc1ccc(OC(C)C)cc1 (stereo not given) | -10% | 5%
CCCn1c(SCc2ncc(-c3ccc(Cl)cc3)o2)n[nH]c1=O | ? | ?
CC1CCN(C(=O)c2cc(-c3cccc(Cl)c3)on2)CC1 | 169%[activator] | 11%
CCOc1ccc(C(=O)/C=C/c2ccccc2O)cc1 | 244%[activator] | 45%[activator]
CC(C)Cn1c(C2CC(=O)N(c3cccc(C(F)(F)F)c3)C2)nc2ccccc21 (stereo not given) | -13% | -6%
O=C(CSc1ncnc2c1oc1ccccc12)NC1CCCCCC1 | 6% | -5%
COc1cc([C@H]2[C@@H]3CCCC[C@]3(O)CCN2Cc2cccc(F)c2)ccc1O | 6% | 10%

4 entries from above in another layout:
Each structure is followed by: StopGo FLuc, 2A Renilla
COC(=O)c1ccccc1NC(=O)CN1C(=O)CN=C(c2ccccc2Cl)c2cc(Cl)ccc21
→ -29%, -10%
CC(C)NC(=O)CCc1ncc(-c2c(F)cccc2F)o1
→ 6%, 4%
O=C(NC(c1ccc(Cl)cc1)c1cccnc1)C1CCCCC1 (stereo not given)
→ 3%, 8%
O=C(COC(=O)COc1ccccc1Cl)Nc1ccccc1OC(F)F
→ 14%, 5%

The list goes on:
Molecule | StopGo FLuc | 2A Renilla
O=C(NCC(c1ccc(Cl)cc1)N1CCCCC1)c1ccc(F)cc1 (stereo not given) | -11% | 0%
Cc1ccccc1C(C)NC(=O)CSc1nc2cc([N+](=O)[O-])ccc2o1 (stereo not given) | -17% | 4%
COc1cc(OC)c(NC(=O)c2csc3c2CCC(C)C3)cc1Cl (stereo not given) | 9% | 0%
CCCC(=O)Nc1cc(C(=O)NCc2ccc(OC)cc2)ccc1S(=O)(=O)c1ccc(Cl)cc1 | 14% | 8%
COc1cc(OC)c(OC)cc1CNc1sc2c(c1C(=O)Nc1ccccc1OC)CCC2 | 7% | 21%
O=C(Nc1ccc(-c2nc3ccccc3o2)cc1)c1ccc(Br)cc1 | 19% | -10%
Cc1cccc(NC(=O)c2nc3ccccc3nc2N2CCCC2)c1 | 6% | 5%
COc1cc(NC(=O)c2nc3ccccc3nc2OC)cc(OC)c1OC | 1% | -3%
CCCSc1ncc(Cl)c(C(=O)Nc2ccccc2C(=O)OC)n1 | -2% | 7%
O=[N+]([O-])c1c2ccccc2cc2ccccc12 | -11%[22.9 µM] | -7%[114 µM]
Cc1oc(-c2ccccc2)nc1C(=O)OCC(=O)NC1(C#N)CCCCC1 | 7% | -8%
Cc1cccc(C(=O)Oc2ccc(C3(c4ccc(OC(=O)c5cccc(C)c5)cc4)OC(=O)c4ccccc43)cc2)c1 | 23% | 8%
Cc1ccc(C)c(Cn2nc(C)n3c(cc4cc(C)ccc43)c2=O)c1 | -7% | -10%
Cn1c(=O)c2c(nc(CN3CCN(c4ccccc4F)CC3)n2Cc2ccccc2)n(C)c1=O | 12% | 9%
Cc1cc2oc(C(=O)NCc3ccc4c(c3)OCO4)cc(=O)c2cc1C | -4% | -8%
Cc1ccc(NC(=O)CSc2n[nH]c(-c3ccc(F)cc3)n2)cc1F | 34%[activator] | 6%
Cc1cccc(S(=O)Cc2ccc(C(=O)N3CCN(c4cccc(Cl)c4)CC3)o2)c1 (stereo not given) | ? | ?
CC(C)Sc1nc(N(CCO)CCO)c2sc3c(c2n1)COC(C)(C)C3 | 10% | 4%
CC(C)CNc1nc(C(=O)Nc2ccc(Cn3cncn3)cc2)cs1 | -10% | -25%
Cc1cc(C)cc(Nc2nnc(-n3nc(C)cc3C)c3ccccc23)c1 | -15% | -13%
O=C(COC(=O)c1cc2c(F)cccc2s1)NCC1CCCO1 (stereo not given) | -3% | -1%
COc1ccc(NC(=O)Cn2ncc3c(C)n(Cc4cccc(Cl)c4)c(C)c3c2=O)cc1 | -2% | -5%
O=C(COc1ccccc1F)OCc1cc(=O)n2nc(C3CC3)sc2n1 | -13% | -15%
CC(C)C1C(=O)Nc2ccc(S(=O)(=O)NCCc3ccc(Cl)cc3)cc21 (stereo not given) | -25% | 150%[activator]
COCCCNC(=O)c1[nH]c2ccccc2c1Sc1ccc(C)cc1 | -10% | 51%[activator]

Some of the entries so far, field by field:
Cc1cc(C)cc(Nc2nnc(-n3nc(C)cc3C)c3ccccc23)c1
  StopGo FLuc = -15% | 2A Renilla = -13%
Cn1c(=O)c2c(nc(CN3CCN(c4ccccc4F)CC3)n2Cc2ccccc2)n(C)c1=O
  StopGo FLuc = 12% | 2A Renilla = 9%
Cc1ccc(NC(=O)CSc2n[nH]c(-c3ccc(F)cc3)n2)cc1F
  StopGo FLuc = 34%[activator] | 2A Renilla = 6%
O=C(NCC(c1ccc(Cl)cc1)N1CCCCC1)c1ccc(F)cc1 (stereo not given)
  StopGo FLuc = -11% | 2A Renilla = 0%

The list continues:
canonical_smiles	StopGo FLuc	2A Renilla
CCc1ccc(NC(=O)CN2CCSc3ccc(S(=O)(=O)N4CCCC4)cc32)cc1	-13%	0%
CCN(CC)S(=O)(=O)c1cc(C(=O)Nc2ncn(Cc3ccccc3C)n2)c(Cl)cc1Cl	9%	-15%
CC(OC(=O)c1cc(=O)[nH]c2ccccc12)C(=O)NC1(C#N)CCCCC1 (stereo not given)	-3%	-8%
COc1ccc(NC(=O)c2cc3nc(-c4ccc(Cl)c(Cl)c4)cc(C(F)(F)F)n3n2)c(OC)c1	0%	-7%
Cc1nnc(NC(=O)c2cc(=O)c3ccccc3o2)s1	0%	4%
CC1CCC(C(=O)Nc2c(NC3CCCCC3)c3ccccc3oc2=O)CC1 (stereo not given)	3%	27%
CCC(C)NC(=O)CSCc1nc(-c2ccc(C)cc2)oc1C (stereo not given)	?	?
CCn1c(SCC(=O)Nc2ccc3ccccc3c2)nnc1-c1cc2ccccc2o1	8%	4%
O=C(Nc1cccc(Cl)c1)c1cnc[nH]1	278%[activator]	1%
CCc1nc(-c2ccc(-c3ccc(C)cc3)nc2OC)no1	173%[activator]	18%
CCOC(=O)N1CCN(CC(=O)Nc2oc3ccccc3c(=O)c2-c2ccccc2)CC1	30%	1%
N=C1C(c2nc3ccccc3c(=O)[nH]2)=C(O)CN1c1cccc(Cl)c1Cl	0%	-5%
COc1cccc(NC(=O)C2CCCN2S(=O)(=O)c2ccc3c(c2)C(C)(C)C(=O)N3C)c1 (stereo not given)	26%	10%
COC(=O)c1c(NC(=O)C2c3ccccc3Oc3ccccc32)sc2c1CCC(C(C)(C)C)C2 (stereo not given)	-1%	0%
Cc1ccc(S(=O)(=O)N2CCC(C(=O)NCc3csc(-c4ccccc4)n3)CC2)cc1C	-29%	14%

canonical_smiles	StopGo FLuc	2A Renilla
Cc1nc2c(C(=O)N3CCOCC3)cnn2c(C)c1Cc1cccc(Cl)c1	22%	5%
Cc1cc(C(=O)CSc2nnnn2C2CC2)c(C)n1Cc1cccs1	?	-18%
CCNC(=O)c1c(C)oc2ncn(C)c(=O)c12	38%[activator]	6%
C[n+]1cccc(C(=O)N=S(C)C)c1	-4%	4%
CCn1cnc2c1c(=O)n(CC(=O)NC(C)c1ccccc1F)c(=O)n2Cc1ccccc1 (stereo not given)	0%	18%
Nc1ccc2[nH]ccc2c1	0%	-6%
Cc1nc2cc(F)cc(C(=O)NCC3CCC3)c2nc1C	-10%	-16%
Cc1ccc(-n2c(SCC(=O)NCc3ccc(F)cc3)nc3c([nH]c4ccccc43)c2=O)cc1	43%[activator]	17%
O=C(O)CCc1ccc(-c2ccc(Cl)cc2)n1-c1cccc(C(F)(F)F)c1	-8%	-12%
Cc1nc(-c2ccc(Cl)cc2)sc1CCNC(=O)C(=O)Nc1ccccc1C#N	24%	7%
O=C(c1cc2sccc2n1Cc1ccccc1F)N1CCOCC1	-13%	-11%
Cc1oc(-c2ccccc2)nc1CC(=O)N(C)c1ccccc1	-12%	-4%
Cn1c(CC(=O)Nc2ccccc2Cl)nnc1SCc1nc2ccccc2c(=O)[nH]1	-9%	-8%
CN(CC(=O)NC1(C#N)CCCC1)CC1CCCCC1	11%	-3%[1.06 µM]
Cc1ccc(-c2nnn(CC(O)COc3cc(C)ccc3C)n2)cc1 (stereo not given)	6%	-11%

canonical_smiles	StopGo FLuc	2A Renilla
COc1ccc(-c2c(C)c3ccc(OS(=O)(=O)c4ccc(F)cc4)cc3oc2=O)cc1OC	0%	1%
Cc1ccccc1CNC(=O)C1CCN(c2nn3cc(-c4ccc(F)cc4)nc3s2)CC1	35%[activator]	-13%
CN(CC(=O)NC(=O)NC(C)(C)C)c1ccccc1	0%	20%
O=c1oc2ccccc2c(NC2CCCC2)c1NS(=O)(=O)c1cccs1	15%	5%
O=C(NCCc1ccccc1Cl)C1CCN(c2nc3ccccc3nc2C(F)(F)F)CC1	1%	-5%
CCN(CC)CCOC(=O)C1(C2CCCCC2)CCCCC1	-23%	-9%
COC(=O)c1sc(=S)n(-c2cccc(C(F)(F)F)c2)c1N	46%[activator]	14%
OCC1CN2CCC1CC2 (stereo not given)	11%	8%
COc1ccc(Cl)cc1N1CC(c2nc3ccccc3n2C(C)C)CC1=O (stereo not given)	-5%	46%[activator]
Cc1ccc(Nc2nc(NCCO)nc3c2cnn3C)cc1Cl	13%	12%
COc1ccc(Cc2nc3ccccc3n2Cc2ccccc2F)cc1	-16%	-17%
COc1cc2ccccc2cc1C(=O)Nc1cccc(-c2nc3cc(C)c(C)cc3o2)c1C	-10%	-7%
O=C(NCCN1CCOCC1)c1nn2c(C(F)(F)F)cc(-c3ccccc3)nc2c1Br	2%	-6%
COC(=O)c1ccc(-c2ccc(/C=C(/C#N)c3nc4ccc(C)cc4[nH]3)o2)c(C)c1	7%	-5%
O=C(O)/C=C/C(=O)Nc1ccc(N2CCOCC2)cc1	7%	0%

canonical_smiles	StopGo FLuc	2A Renilla
N#Cc1ccc(CCC(=O)NCc2ccc(F)cc2)cc1	4%	-15%
NC(=O)COCCN1CCN(C(c2ccccc2)c2ccc(Cl)cc2)CC1 (stereo not given)	-12%[11.5 µM]	-9%
C=C(C)CN1CCN(c2nc3c(c(=O)[nH]c(=O)n3C)n2Cc2ccccc2Cl)CC1	0%	-5%
N#CCCC(C#N)CSc1nnc(-c2c[nH]c3ccccc23)n1C1CC1 (stereo not given)	3%	2%
CC(=O)NCc1ccc(C(=O)OC(C)C(=O)C23CC4CC(CC(C4)C2)C3)cc1 (stereo not given)	13%	7%
CC(C)c1ccc(NC(=O)c2cn(C3CCCC3)c(=O)c3c2c2ccccc2n3C)cc1	55%[activator]	20%
COc1ccc(NC(=O)c2oc3ccc(S(=O)(=O)N4CCC5(CC4)OCCO5)cc3c2C)cc1Cl	?	-30%
CCOC(=O)c1c(C)c(-c2ccccc2)n(CC(=O)NC(CC)Cc2ccccc2)c1C (stereo not given)	-7%	0%
CN(C)S(=O)(=O)c1cccc(NC(=O)c2nc(-c3ccccc3)n(-c3ccccc3)n2)c1	20%	40%
CN(C)CCOC(=O)NCCCCNC(=O)OCCN(C)C	32%[activator]	13%
O=C1[C@@H]2CSC(c3ccc(C(F)(F)F)cc3)N2C(=O)N1c1ccccc1 (stereo not given in full)	-7%	-2%
Cc1[nH]c(C(=O)N2CCC(CC(=O)NCc3ccc4c(c3)OCO4)CC2)c(C)c1C(=O)OC(C)C	-2%	13%
Cc1ccc(-c2cnc(CCC(=O)Nc3nc(C)cs3)o2)cc1	1%	-15%

High-throughput results (PubChem)

A portion of the library; count on the stated rates, not on these rows.
